# TRPML1 inh – qHTS for Inhibitors of the Human Mucolipin Transient Receptor Potential 1 (TRPML1) | TRPML1-inducible cells, Ca2+ dye fluorescence, FDSS; active compounds read low; inhibition of EC80 agonist-evoked calcium signal | activity change, negative = inhibition, % (no concentration beside the values) | 390,000 tested, 0.02% active | AID 624415, 2012; in the data active means activity change below about -50%; inconclusive means about -30% to -50%; inactive means above about -30%;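 note: stimulus is agonist 54-4 at its EC80 concentration; % is set by controls: 0 for no effect and ±100 for the full control effect; compound concentration not given in the record; the text of the record puts the active cut at -80%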
# Target sequence (Q9GZU1 whole entry, looked up): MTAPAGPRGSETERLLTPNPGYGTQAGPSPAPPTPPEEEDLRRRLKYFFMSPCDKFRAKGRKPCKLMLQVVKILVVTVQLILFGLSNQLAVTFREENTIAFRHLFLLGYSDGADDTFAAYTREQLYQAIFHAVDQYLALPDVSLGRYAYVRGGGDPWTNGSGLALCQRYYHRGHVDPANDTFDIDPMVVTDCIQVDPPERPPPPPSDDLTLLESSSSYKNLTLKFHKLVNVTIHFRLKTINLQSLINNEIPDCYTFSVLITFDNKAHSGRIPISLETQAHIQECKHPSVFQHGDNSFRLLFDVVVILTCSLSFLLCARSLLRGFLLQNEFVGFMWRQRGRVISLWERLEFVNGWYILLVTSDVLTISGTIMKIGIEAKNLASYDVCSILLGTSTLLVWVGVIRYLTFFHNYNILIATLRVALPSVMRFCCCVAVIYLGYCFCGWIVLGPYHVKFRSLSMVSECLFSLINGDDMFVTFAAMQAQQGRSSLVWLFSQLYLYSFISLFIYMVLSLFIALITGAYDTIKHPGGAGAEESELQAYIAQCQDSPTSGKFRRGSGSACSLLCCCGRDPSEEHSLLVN
#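 Tet-induced TRPML1-DL cells loaded with Ca8 no-wash calcium dye were read kinetically on FDSS. Compound addition was followed by EC80 agonist 54-4 (4 uM final); inhibition was read over 110 s.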
# TRPV1 potentiator – HTS Assay for Compounds that Act as Potentiators of the Vanilloid Receptor 1; 320,000 tested, 0.02% active; potentiation, % at 8.33 µM; Transient receptor potential cation channel subfamily V member 1 (Homo sapiens), Q8NER1; TRPV1-expressing cells, Fluo-8 calcium influx, capsaicin EC20 potentiation; host cell line not named in the record; control for the full effect not named in the record; AID 540277, 2011; active means potentiation above 80%; inconclusive means 30% to 80%; inactive means below 30%; note: 0% is about no effect
#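 TRPV1-expressing cells were cultured overnight at 35.5C and loaded with Fluo-8 calcium dye for 40 to 90 min at room temperature. After a 10 s baseline, compound was added and calcium influx was read kinetically for 3 min (ex 480/em 520 nm).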
# PINK1 expr mod – A Quantitative High throughput Screen to Identify Chemical Modulators of PINK1 Expression | PINK1 immunofluorescence, high-content cytometry, 24 h | Potency, µM (top dose mostly 76.6 µM), for inactives: at the top dose activation (PINK1 increase), hits mostly activators | 410,000 tested, 0.2% active | AID 624263, 2012; active = well fitted activation curve with a large enough effect; inconclusive = small, poorly fitted or top-dose-only effect; inactive = flat fitted curve, though single readings scatter; cell line not stated here;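 note: potency is the fitted concentration of half-maximal effect; % of control where 0% means no effect; nearly all actives have a fitted effect of over 65% in size; a mitochondrial uncoupler was the plate control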
#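 A stable cell line was treated with compounds at 5 concentrations for 24 hours, with CCCP as control. PINK1 levels and mitochondrial localization were measured by immunofluorescence with mitochondrial, cell and nuclear markers after fixation, read by laser-scanning cytometry.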
# Sfp inh – qHTS Assay for Inhibitors of Bacillus subtilis Sfp phosphopantetheinyl transferase (PPTase); 4'-phosphopantetheinyl transferase ffp (Bacillus subtilis), Q9F4F7; Biochemical Sfp PPTase activity, qHTS; Potency, µM, without a hit: max response, negative = inhibition, hits mostly inhibitors; 310,000 tested, 3.5% active; active = well fitted inhibition curve with a large enough effect; inconclusive = small, poorly fitted or top-dose-only effect, or another doubt; inactive = no such curve, though single readings can be large or run the other way;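 note: the enzyme is Sfp with the accession as filed and its product quenches rhodamine fluorescence; potency is the fitted concentration of half-maximal effect; 0% = enzyme reaction without inhibitor and -100% = no enzyme wells; top concentration of the series not given in the record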
#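 Fluorescence-quenching assay with 15 nM Sfp, 5 uM rhodamine-CoA and 12.5 uM BHQ-2-labelled ybbR peptide in pH 7.6 Hepes/MgCl2 buffer. Enzyme was pre-incubated with compound for 15 min at room temperature. Rate was taken from the 30-min fluorescence change (525/598 nm).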
# ClpP mod – qHTS Assay for Activators of ClpP. ATP-dependent Clp protease proteolytic subunit (Bacillus subtilis (strain 168)), P80244. purified B. subtilis ClpP, FRET peptide cleavage, 20 min. Potency, µM (highest dose often 57.5 µM), for the others: at the top dose activity change, negative = active. 340,000 tested, 1.9% active. AID 651965, 2013; active = well fitted falling curve with a large enough effect; inconclusive = small, poorly fitted or top-dose-only effect; inactive = no such curve, though single readings can be large or run the other way; note: potency is the fitted concentration of half-maximal effect; the source files actives as falling curves though it sought activators and does not explain the sign; nearly all actives have a fitted effect of over 65% in size; many hits overshoot -100%
# Target sequence (P80244 whole entry, looked up): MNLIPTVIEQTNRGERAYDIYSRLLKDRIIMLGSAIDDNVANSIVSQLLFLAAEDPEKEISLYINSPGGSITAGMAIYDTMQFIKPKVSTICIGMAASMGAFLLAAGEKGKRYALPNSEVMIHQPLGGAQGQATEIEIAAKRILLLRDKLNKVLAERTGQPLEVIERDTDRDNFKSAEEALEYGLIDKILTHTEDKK
#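 FRET quenching reversal measured ClpP activation: 10 microg/mL B. subtilis ClpP at pH 8 with the FRET-FV decapeptide, read at 430 nm after 320 nm excitation. The 20-min minus 0-min signal was scaled between DMSO/no-enzyme wells and ADEP (5.8 microM final).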
# TRPML1 ag – qHTS for Agonists of the Human Mucolipin Transient Receptor Potential 1 (TRPML1). TRPML1-expressing cells, Ca2+ dye fluorescence, FDSS; host cell line not named in the record; reference of the full effect not given here. activation, % (no concentration beside the values). 410,000 tested, 0.12% active. AID 624414, 2012; in the data active = activation above about 50%; inconclusive = about 30% to 50%; inactive = below about 30%; note: 0% is about no effect; the text of the record puts the active cut at 80%
#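 Kinetic FDSS Ca2+ read in Tet-induced TRPML1-DL cells (ABD Ca8 dye plus quencher, 45-90 min RT loading): baseline, then compound, then 110 s agonist window; EC80 agonist 54-4 at 4uM final added afterwards for a 110 s antagonist window.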
# Menin-MLL FL inh – qHTS Assay for Inhibitors Targeting the Menin-MLL Interaction in MLL Related Leukemias: Competition With Fluorescein Labeled MLL-derived Peptide; AID 1766, 2009; Fluorescence polarization, fluorescein-MLL peptide displacement from menin; 290,000 tested, under 10 active; FP activity change, % at 61.4 µM; inconclusive = falling polarisation curve, or a change in total fluorescence; inactive = total fluorescence flat and polarisation flat or rising; no compound was filed as active; the % refers to the polarisation; negative = inhibition;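 note: % of control where 0% means no effect; inhibitors lower the polarisation; unlabelled MLL peptide was the positive control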
# * marks the source's active call; other numbers are inactive results; ? = inconclusive; / = not tested or not shown; & = joins results of further samples; [ ] = remark or other dose. Not a hit list. About 4.4% of those tested had a hit in this group.
SMILES,TRPML1 inh,TRPV1 potentiator,PINK1 expr mod,Sfp inh,ClpP mod,TRPML1 ag,Menin-MLL FL inh
COc1ccc(CP(=O)(c2ccccc2)c2ccccc2)cc1,-6,8,1.8%,25%,-2.0%,-0.2,1.9
CCC(C)NC(=O)C(=O)NCc1ccccn1 (configuration not stated),38,1,-0.7%,12%,/,0.2,-2.2
COC(c1ccccc1)c1nnc(CCC(=O)N(C)C(C2CC2)C2CC2)o1 (configuration not stated),-8,-1,-0.8%,12%,/,0.6,2.2
CCCCN1C(=O)c2ccc(C(=O)NCc3ccco3)cc2C1=O,11,-25,0.2%,-4%,0.1%,-0.1,/
CN(C(=O)c1ccccc1Cl)c1ccccc1C(=O)NCCc1ccccc1,-6,-7,0.9%,5%,-1.4%,0.5,-1.1
O=C(CSc1nc2ccccc2c(=O)[nH]1)c1ccc(O)cc1O,19,-7,-1.0%,-12%,0.3%,1.0,-0.3
Cc1ccc(-c2nn3c(C)nnc3s2)cc1NC(=O)c1cccnc1,-9,9,-0.1%,-6%,0.0%,1.1,2.7
CN(C)c1ccc(/C(=N\O)c2ccccc2)cc1,18,-4,7.3%[38.3 µM],-24%,-4.9%,2.0,-2.4
O=C(CNC(=O)c1ccc([N+](=O)[O-])cc1)c1ccccc1,-12,-12,7.9%[38.3 µM],23%,-0.5%,0.5,5.8
CCOC(=O)CCc1nc2ccccc2[nH]1,11,/,-4.3%[38.3 µM],10%,-0.7%,1.0,2.7
CCOC(=O)C(Cc1nc(OCc2ccccc2)cc(OCc2ccccc2)n1)=NO,0,/,-6.9%,/,-1.5%,2.5,/
Clc1cccc(C2Nc3cccc4cccc(c34)N2)c1,-14,14,0.0%,-28%,/,0.3,3.2
CCOC(=O)N1CCC(NCCNC(=O)c2ccc(Cl)cc2)CC1,30,11,-2.2%,-14%,-4.4%,1.4,0.5
COc1ccc(Cn2cc(CN3CCOCC3)nn2)cc1,-9,/,0.7%,/,0.0%,-0.4,/
CC(C)[C@H](NC(=O)[C@@H]1Cc2ccccc2CN1)C(=O)Nc1ccc2c(c1)OCO2,-13,9,-0.8%,3%,-4.2%,0.2,/
C#Cc1ccc(CN2CCC(Oc3cc(C(=O)NC4CC4)ccc3OC)CC2)cc1,-6,-1,1.0%,16%,0.3%,0.1,1.4
CCCCCc1ccc(C(=O)CCCC)c(=S)[nH]1,38,0,-1.7%,31%[activator],/,0.3,-6.1
O=C(COc1ccc2ccccc2c1)NC1CC(=O)N(c2ccccc2)C1 (configuration not stated),-13,/,1.4%,/,-1.1%,0.3,/
CC(C)c1ccc(OCC(=O)NC(C)c2ccccc2)cc1 (configuration not stated),2,-14,5.4%,8%,0.7%,0.8,-2.7
O=S(=O)(c1ccc(F)c(F)c1)N1CCN(c2ccccn2)CC1,42,-6,4.1%,0%,?,0.4,-1.6
COc1ccc2c(c1)c1c(c(=O)n(Cc3ccccc3)c(=O)n1CC(=O)Nc1ccccc1F)n2C,-5,/,0.5%,/,-5.3%,1.5,/
NC(=NCCc1ccccc1)NS(=O)(=O)c1ccc2ccccc2c1,7,7,1.3%,16%,-1.8%,0.2,4.0
O=C(N/N=C/c1ccncc1)c1ccccc1,9,-7,-0.5%,20%,-1.1%,0.0,-0.7
Cc1ccc(NC(=O)CSc2nncn2N)cc1C,/,5,0.9%,21%,-0.4%,/,-1.4
Cc1ccccc1NC(=S)N(CCN1CCOCC1)Cc1ccccc1F,4,10,3.1%,11%,/,0.0,1.8
COCC(C)n1c(SCC(=O)N2CCc3ccccc3C2)nc2ccccc2c1=O (configuration not stated),-1,4,0.4%,-9%,13µM*,1.1,1.5
Cc1sc2nc(-c3ccccc3)[nH]c(=O)c2c1-c1ccccc1,/,2,/,7%,/,/,2.1
Cc1c(C(=O)Nc2ccc(C(C)C)cc2)sc2nc3n(c(=O)c12)CCC3,7,/,0.4%,/,-2.8%,5.2,/
CCC(=O)c1ccc(N2CCN(C(=O)c3ccccc3F)CC2)c(F)c1,22,17,0.9%,-3%,/,0.5,7.3
CC1(C)SC2C(NC(=O)COc3ccccc3)C(=O)N2C1C(=O)O (configuration not stated),14&13,7&15,-0.1%&-0.3%,-2%&-6%,-0.7%&1.3%,0.1&3.8,3.4&-4.5
CC1CN(C(=O)/C=C/c2cccc([N+](=O)[O-])c2)CC(C)O1 (configuration not stated),6,/,-3.2%,/,-15%,1.0,/
CC(=O)c1cc(CN2CCC(N3CCC(C(=O)NC(C)C)CC3)CC2)cs1,5,4,1.1%,19%,0.0%,1.5,0.2
Fc1ccccc1-n1ncc2c1ncn1nc(Cc3ccccc3)nc21,29,/,0.2%,/,-8.0%,1.4,/
COc1cc2c(cc1OC)[C@@H](NC(=O)Cc1ccc(F)cc1)[C@H](OCc1ccccc1)C2,3,/,10%,/,2.0%,0.3,/
COc1ccc(C2C(C(N)=O)=C(C)Nc3nc(SCc4ccccc4Cl)nn32)cc1OC (configuration not stated),-7,/,-0.3%,/,4.4%,-0.2,/
O=C(/C=C/c1cccs1)Nc1cccc(NC(=O)/C=C/c2cccs2)n1,3,16,-3.7%,13%,-3.5%,1.4,17
Cc1cc(C(=O)CN2C(=O)NC(C)(CC(C)C)C2=O)c(C)n1-c1ccc2c(c1)OCO2 (configuration not stated),-6,2,0.9%,1%,0.2%,-0.2,-2.5
Cc1cc(C)n(-c2ccc(Cl)c(C(=O)NCc3ccccc3)n2)n1,9,8,3.2%,7%,/,-0.7,-6.0
CCCc1nnc(NC(=O)CCC(=O)N2CCN(Cc3ccc(C)cc3C)CC2)s1,-5,8,-1.0%,16%,-0.7%,-0.9,0.3
COc1cc(/C=N/n2nnnc2N)ccc1OCC(N)=O,19,-4,-0.6%,27%,-17%,-0.5,-5.3
O=C(NCc1ccco1)C1CCN(S(=O)(=O)N2CCC3(CC2)OCCO3)CC1,-11,7,/,22%,0.2%,0.9,3.8
Cc1cc(C(N)=O)c2cc(Br)ccc2n1,-13,0,4.4%[38.3 µM],14%,-3.0%,1.1,0.8
Cc1c(NC(=S)NNC(=O)CCC(=O)O)c(=O)n(-c2ccccc2)n1C,9,1,0.0%,45µM*,0.9%,0.4,0.0
Cc1cc(C)nc(NS(=O)(=O)c2ccc(NS(=O)(=O)c3ccccc3)cc2)n1,42,6,4.9%[38.3 µM],5%,-1.3%,0.2,1.6
COC(=O)C1=C(C)N(Cc2ccccc2)C(=S)N[C@H]1CCc1ccccc1,/,19,/,3%,/,/,2.5
O=[N+]([O-])c1ccc(N/N=C/c2cn(-c3ccccc3)nc2-c2ccccc2)cc1,1,/,11%,15%,-1.2%,7.7,4.5
COC(=O)c1oc2ccccc2c1NC(=O)c1ccccc1O,-5,4,9.5%,13%,/,0.5,-0.6
Cc1ccccc1C1C(C#N)=C2N=C(N)c3c(sc4c3CCCCC4)N2C2=C1C(=O)CCC2 (configuration not stated),-17,14,?,50µM*,8.8%,3.1,?
O=C1C2C(C(=O)N1Cc1ccco1)C1C=CC2C12CC2 (configuration not stated),-6,-8,16%[38.3 µM],-1%,2.0%,0.0,4.3
Cc1cccc(NCc2ccccc2O)c1C,14,22,6.8%,4%,-0.7%,7.7,2.9
CC(=O)Nc1ccc(/C=N/N2CCCCC2)cc1,1,-5,-0.5%,-4%,/,-0.3,-0.2
CC1CCCN(CC(O)COc2ccc(Cl)cc2)C1 (configuration not stated),16,-12,-3.2%[38.3 µM],-6%,-0.1%,0.8,4.0
O=C(NC1CCCC1)c1ccc(COc2ccccc2Br)o1,-3,1,-0.8%,7%,-2.9%,2.5,/
O=C(Nc1ccc2c(c1)OCO2)c1ccc2c(c1)OCO2,-11,-15,-0.9%,-5%,2.2%,-0.9,1.4
COc1ccccc1NC(=O)CSc1nc(-c2ccc(C)cc2)nc2c1Cc1c(CO)cnc(C)c1O2,-5,/,0.3%,/,-0.2%,1.8,/
COc1ccc(S(=O)(=O)N(CC(=O)NCCSc2ccc(C)cc2)c2ccc(C)cc2)cc1,-7,/,1.0%,/,-0.1%,2.4,/
O=C(Nc1nccs1)C1CC=CCC1C(=O)OCC(F)(F)C(F)F (configuration not stated),15,?,-0.1%,/,1.2%,-0.4,/
CC(=O)Nc1cccc(C(=O)OCc2csc(CC(=O)Nc3ccccc3C)n2)c1,-7,1,2.3%,/,-2.9%,2.1,/
C=CCNS(=O)(=O)c1ccc(OC)c(C)c1,-2,13,-0.1%[38.3 µM],7%,2.0%,1.8,0.3
CCc1nc2ccccc2n1CC(=O)Nc1cc(C)on1,-14,-11,0.6%,-1%,/,0.7,2.0
# Going on with the list.
SMILES,TRPML1 inh,TRPV1 potentiator,PINK1 expr mod,Sfp inh,ClpP mod,TRPML1 ag,Menin-MLL FL inh
CC(C)c1nc2cc(Cl)ccc2n(Cc2ccccc2)c1=O,-4,8,?,1%,/,0.2,-0.7
N#CC(C#N)=C1C=CC=CN1/C(=C\c1ccccc1Cl)C(=O)c1ccccc1,-13,14,-3.8%,?,5.3%,3.3,0.1
Cc1ccc(CCNC(=O)c2ccc(NC3=NC4CS(=O)(=O)CC4S3)cc2)cc1 (configuration not stated),2,-5,3.4%,16%,2.0%,-0.3,/
O=C(CNC(=O)c1cccc(F)c1)N/N=C/c1ccc([N+](=O)[O-])s1,-17,-3,?,0%,-1.7%,1.3,1.2
COc1ccc(C(=O)N/N=C(\Cc2ncc[nH]2)c2ccccc2)cc1,-1,2,-1.0%,16%,0.8%,-1.3,0.0
Cc1ccc(N2CCN(S(=O)(=O)c3cccc4ccccc34)CC2)cc1Cl,6,/,3.2%,/,-12%,0.3,/

# High-throughput results as filed in PubChem.
